# High-throughput results deposited in PubChem by Johns Hopkins Ion Channel Center.
# KCNQ2 pot: potentiators of rat KCNQ2 potassium channel; O88943; CHO-K1 KCNQ2, FluxOR thallium flux fluorescence; hits give high values; actives 0.54% (n = 310,000); B-score at 10 µM; AID 2239;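 active means fluorescence ratio B-score at least 3 SD of library B-scores, with initial fluorescence B-score within 3 SD, cut at about 5.3 in these data; same plate scores as AID 2156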;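 further: B-score of peak minus minimum over baseline fluorescence ratio after K+ and Tl+ stimulus; positive B-score means potentiation of KCNQ2 with more thallium influx and brighter signal; only the inactives scoring about 0 or higher are listed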
# Target sequence (O88943 whole entry, looked up): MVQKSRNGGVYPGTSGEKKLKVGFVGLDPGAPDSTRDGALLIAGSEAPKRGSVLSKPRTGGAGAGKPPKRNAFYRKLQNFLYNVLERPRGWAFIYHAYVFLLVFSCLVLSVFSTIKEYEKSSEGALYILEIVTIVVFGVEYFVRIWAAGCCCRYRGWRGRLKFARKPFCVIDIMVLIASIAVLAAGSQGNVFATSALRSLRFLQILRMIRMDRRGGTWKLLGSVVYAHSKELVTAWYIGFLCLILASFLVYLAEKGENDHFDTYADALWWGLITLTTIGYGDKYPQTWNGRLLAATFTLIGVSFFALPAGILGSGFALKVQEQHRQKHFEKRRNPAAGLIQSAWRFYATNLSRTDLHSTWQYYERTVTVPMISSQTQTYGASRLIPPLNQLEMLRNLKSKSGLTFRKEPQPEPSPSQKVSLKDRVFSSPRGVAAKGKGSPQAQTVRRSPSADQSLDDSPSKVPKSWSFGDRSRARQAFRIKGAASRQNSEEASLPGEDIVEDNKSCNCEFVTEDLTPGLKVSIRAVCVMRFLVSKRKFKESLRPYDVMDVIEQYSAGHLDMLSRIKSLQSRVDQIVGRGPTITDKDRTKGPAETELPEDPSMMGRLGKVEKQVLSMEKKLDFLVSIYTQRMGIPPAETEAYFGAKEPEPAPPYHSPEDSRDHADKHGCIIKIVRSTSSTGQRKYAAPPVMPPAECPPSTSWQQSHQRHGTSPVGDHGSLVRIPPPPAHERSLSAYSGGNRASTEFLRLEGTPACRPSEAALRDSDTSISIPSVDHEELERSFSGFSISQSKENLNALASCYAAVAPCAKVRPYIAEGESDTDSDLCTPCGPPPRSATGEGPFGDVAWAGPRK
# KCNQ2 pot baseline: recorded beside KCNQ2 pot, whose call it bears; B-score; compound at 10 µM; measured here: initial fluorescence intensity artifact check;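 brightness before thallium and not channel activity; 0 = typical well and far values either way flag optical interference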
# An asterisk follows results filed as active. These rows are one share of the data (hit frequency here may not be typical).
# The first three entries, ahead of the listing:
SMILES,KCNQ2 pot,KCNQ2 pot baseline
COc1ccccc1OCc1ccc(C(=O)NN)o1,1.1,1.3
CC(C)C(NS(=O)(=O)c1cccc2nsnc12)C(=O)Nc1nccs1 (stereo not given),0.18,0.67
Cc1cccc2cc(C#N)c(SCC(=O)N3CC(=O)Nc4ccccc43)nc12,0.49,0

# Results, from the first entry:
SMILES,KCNQ2 pot,KCNQ2 pot baseline
COc1ccccc1OCc1ccc(C(=O)NN)o1,1.1,1.3
CC(C)C(NS(=O)(=O)c1cccc2nsnc12)C(=O)Nc1nccs1 (stereo not given),0.18,0.67
Cc1cccc2cc(C#N)c(SCC(=O)N3CC(=O)Nc4ccccc43)nc12,0.49,0
CN1C(=O)NC(c2ccccc2)(C(F)(F)F)S/C1=C(/C#N)c1nnc(N2CCOCC2)n1-c1ccccc1 (stereo not given),1.91,-1.6
CCn1c(=O)c2c(O)cc(=O)oc2c2ccccc21,0.21,1.04
COc1ccc(NC(=O)c2cc(S(=O)(=O)N3CCCC3)c[nH]2)cc1,0.36,-0.35
COc1ccc(Br)cc1C(=O)Nc1cccc(-c2nnc(-c3ccco3)o2)c1,1.02,-0.04
Cc1ccc(-c2[nH]nc3c2C(C)C(C#N)=C(N)O3)cc1 (stereo not given),0.02,-0.17
Cc1cc(C)c(OCC(=O)OCC(=O)N(C)C2CCS(=O)(=O)C2)c(C)c1 (stereo not given),1.37,0.94
CCOC(=O)Nc1ccc(OCc2nnc3c4ccccc4c(C)nn23)cc1,1.41,0.85
COc1ccc(NS(=O)(=O)c2cccc3cccnc23)cc1,0.38,-1.48
O=C(COC(=O)C1=NNC(=O)CC1)NCCc1ccccc1,0.75,-0.14
COc1cc(/C=C/C(=O)OCC(=O)Nc2cccc(Oc3ccccc3)c2)ccc1O,0.96,-0.59
CCc1ccccc1-n1nnc(-c2ccccc2)n1,2.01,0.07
CCc1ccc(NC(=O)CSc2nc(=O)n(CCN(C)C)c3c2CCCC3)cc1,0.65,-0.4
CC1(C(=O)O)CCC(C(=O)N2CCCCC2)C1(C)C (stereo not given),1.56,0.67
Clc1ccc(Nc2ncnc3c2nnn3Cc2ccccc2)cc1,0.62,0.27
C[C@H]1CN=C(Nc2ccccc2)N1CCCC1CCCC1,1.44,1.36
CCC(C)Sc1nnc(NC(=O)c2ccco2)s1 (stereo not given),0.68,0.38
Cc1[nH]n(-c2ccccc2)c(=O)c1-c1ccccc1,0.93,1.52
COc1ccc(CNC(=O)C2CCN(S(=O)(=O)N3CCC4(CC3)OCCO4)CC2)c(OC)c1,0.04,1.34
CC1(C)Cc2c(cnn2-c2ccccc2)C(NC(=O)c2ccc[n+]([O-])c2)C1 (stereo not given),0.25,0.41
CCN1CCN(C(=O)N(c2ccccc2)c2ccccc2)CC1,0.04,0.16
Cc1[nH]cnc1CN1CCc2c(c3ccccc3n2C)C1=O,0.51,-0.53
CS(=O)(=O)N1CCN(C(=O)NC2CCCCC2)CC1,2.04,0.12

# (cont.)
SMILES,KCNQ2 pot,KCNQ2 pot baseline
C=CCn1c(Cc2cccs2)nnc1SCC(=O)Nc1cccc(OC)c1,0.76,-0.95
COc1ccc(NC(=O)CN(C)C(=O)C(C)N2C(=O)c3ccccc3C2=O)cc1 (stereo not given),0.02,0.74
CCCc1nnc(SCC(=O)Nc2cccc(C(F)(F)F)c2)o1,0.02,-0.92
CC(=O)Nc1ccc(C)cc1NC(C)=O,2.27,-0.06
COC(=O)CC(NC(=O)c1ccco1)c1cccc2ccccc12 (stereo not given),0.22,-0.45
O=C(Nc1ccc(F)cc1)c1ccccc1F,1.19,-0.02
Cn1c(SCC(=O)NC2CC2)nnc1-c1cccs1,0.83,2.44
COc1ccc(NC(=O)CN(C)C(=O)c2cnc(Cl)c(Cl)c2)cc1,0.74,0.93
O=S(=O)(c1ccccc1)N1CCN=C1SCc1cccnc1,0.2,-0.16
CCC(=O)Nc1cccc(C2=NOC3(C2)C[C@H](C(N)=O)N(C(=O)CC#N)C3)c1 (stereo not given in full),0.32,1.09
O=C(CCl)NC1CCCc2ccccc21 (stereo not given),1.01,0.11
CCc1ccc(-c2nc(CS(=O)CC(=O)NCCCN3CCC(C)CC3)c(C)o2)cc1 (stereo not given),0.08,-1.86
CCOCCCNc1nc2c(c(=O)[nH]c(=O)n2C)n1CCCc1ccccc1,0.56,-1.71
O=C(CNC(=O)c1ccc(Oc2ccccc2)cc1)OC1CCCCC1=O (stereo not given),0.02,-0.07
C=CCOc1ccc2ccccc2c1CNc1ncn[nH]1,0.51,0.01
O=C(CNCC1CCCCC1)Nc1ccc(N2CCCCC2)cc1,0.03,1.77
CC(C)C(C(=O)OCC(=O)c1ccc2c(c1)NC(=O)CO2)N1C(=O)c2ccccc2C1=O (stereo not given),0.42,1.78
COc1ccc(Cc2nnc(SCC(=O)Nc3ccc(C)cc3)n(N)c2=O)cc1,0.43,0.12
COc1cc(NS(=O)(=O)c2ccc(C)cc2)ccc1-n1cnnn1,1.01,-0.24
COC(=O)c1c(NC(=O)c2ccccc2F)sc2c1C(C(=O)OC)CC2 (stereo not given),0.77,-0.06
Cc1c(Cl)cccc1NC(=S)NCc1ccc2c(c1)OCO2,2,0.35
CC(C)CNC(=O)CSc1n[nH]c(=O)n1CCc1ccccc1,0.35,-0.14
CCCCOc1cccc(C(=O)NC(=S)Nc2cccc(C(F)(F)F)c2)c1,0.87,-0.2
O=C(COc1ccccc1)NS(=O)(=O)c1ccc(Cl)cc1,0.25,1.45
COc1cc(OC)c(C(=O)NCC(c2cccs2)N(C)C)cc1OC (stereo not given),0.29,-0.3

# Reformatted: entries from further up.
mol	KCNQ2 pot	KCNQ2 pot baseline
O=C(CNCC1CCCCC1)Nc1ccc(N2CCCCC2)cc1	0.03	1.77
CCCCOc1cccc(C(=O)NC(=S)Nc2cccc(C(F)(F)F)c2)c1	0.87	-0.2
CC(C)C(C(=O)OCC(=O)c1ccc2c(c1)NC(=O)CO2)N1C(=O)c2ccccc2C1=O (stereo not given)	0.42	1.78
COC(=O)c1c(NC(=O)c2ccccc2F)sc2c1C(C(=O)OC)CC2 (stereo not given)	0.77	-0.06
CC(C)CNC(=O)CSc1n[nH]c(=O)n1CCc1ccccc1	0.35	-0.14
COc1cc(NS(=O)(=O)c2ccc(C)cc2)ccc1-n1cnnn1	1.01	-0.24

# The list continues:
SMILES,KCNQ2 pot,KCNQ2 pot baseline
CCOC(=O)N1CCC(NC(=O)C(C)n2c3ccccc3c3cnn(C)c(=O)c32)CC1 (stereo not given),0.29,-0.75
COC(=O)C(CO)Nc1ncnc2onc(-c3ccc(F)cc3)c12 (stereo not given),0.63,0.71
CCNC(=O)NC(=O)C(C)OC(=O)c1oc2ccc(OCC)cc2c1C (stereo not given),1.9,-0.18
CCOC(=O)N1CCN(c2ccc(C(C)=O)cc2F)CC1,0.72,0.21
CCOC(=O)c1csc(NC(=O)CSc2nnnn2-c2cccc(OC)c2)n1,0.88,-0.71
CCc1ccc(C(=O)Nc2nnn(CC)n2)cc1,0.17,0.77
CCCCCOP(=O)(c1ccccc1)c1ccccc1,1.53,-0.65
CC(C)NC(NC(=O)/C=C/c1ccccc1)C(Cl)(Cl)Cl (stereo not given),1.73,-1.23
COc1cc(C(c2sc3nc(C)nn3c2O)N2CCOCC2)cc(OC)c1OC (stereo not given),0.83,-1.43
COc1ccc(OCCn2cnc(Cl)c2Cl)cc1,0.45,0.04
Cc1cc(NC(=O)CSc2nnc3ccccn23)no1,2.12,-1.7
COc1ccc(N2CCN(C(=O)c3c(Cl)cnn3C)CC2)cc1,0.32,0.32
CC(c1ccco1)N(C(=O)c1ccc(F)cc1)c1ccccn1 (stereo not given),0.02,0.89
CCCCNC(=O)c1cn(C)c2ccc(S(=O)(=O)N3CCCC3)cc2c1=O,1.27,0.53
CN(Cc1ccccc1)C(=O)C1CCN(S(=O)(=O)c2ccc(-n3cnnn3)cc2)CC1,0.88,1.07
Cc1cc(C(=O)Nc2cccc(S(=O)(=O)N3CCCCC3)c2)c2ccccc2n1,1.03,-1.09
COC(CNC(=O)CCc1c(C)nc2c(c(C)nn2-c2ccc(C)cc2)c1C)OC,0.93,-0.8
COc1cccc(OCC(=O)NNC(=O)C(=O)Nc2ccc(OC)cc2OC)c1,4.03,0.02
CC1(C)CC(=O)C(CC2=C(O)CC(C)(C)CC2=O)=C(O)C1,2.36,0.01
CSc1nc2cc(S(=O)(=O)N3CCCCC3)ccc2s1,0.39,0.22
Cn1c(NC(=O)/C=C/c2ccc(Cl)c(Cl)c2)cc(=O)n(C)c1=O,1.95,0.43
O=C(NCCN=C1NS(=O)(=O)c2ccccc21)c1ccc2nccnc2c1,0.66,0.9
CC[C@@H](C)[C@H](CN[C@H](CNC)[C@@H](C)O)NCCc1ccc(OC)cc1,0.77,-2.39
COc1nn(-c2nc(-c3ccccc3)cc(C(F)(F)F)n2)cc1[N+](=O)[O-],0.66,-0.01
CCN(CC(=O)Nc1ccc(OC)cc1)C(=O)c1cc(-c2cccs2)nn1-c1ccccc1,0.75,-0.26

# Remaining list, next part:
SMILES,KCNQ2 pot,KCNQ2 pot baseline
COc1ccc(CNC(=O)C(OC(=O)c2ccco2)c2ccc(F)cc2)cc1 (stereo not given),1.05,0.22
CCOC(=O)N1CCN(c2c(-c3ccc(C)c(C)c3)c(=O)c2=O)CC1,0.84,1.11
CCOC(=O)C(C#N)C(c1cccnc1)c1c(C)[nH][nH]c1=O (stereo not given),1.13,1.39
CCCC(=O)NC(=S)Nc1cccc(C(C)=O)c1,1.82,0.29
Cc1cc(C(=O)CSc2nnnn2C)c(C)n1-c1ccc2c(c1)OCCO2,0.05,-0.56
COc1cc(C(=O)C(=O)c2cc(OC)c(O)c(OC)c2)cc(OC)c1O,1.18,0.18
O=C1OC2(c3ccccc3)C3CCCC2C13,1.32,0.81
CCc1cc(=O)oc2c(C)c(O)c(CN3CCCCC3)cc12,0.54,1.42
Cc1cc(C(F)F)nn1CC(=O)NCc1ccco1,2.25,0.68
CCCC(=O)Nc1cc(OCC)c(NC(=O)NC2CCCCC2)cc1OCC,0.37,0.02
O=C(CC1NC(=S)NC1=O)c1ccc(Cl)cc1 (stereo not given),1.17,0.93
CCCC(=O)NCCc1cc2cc(C)c(C)cc2[nH]c1=O,0.77,-4.41
CCSc1nc(N2CCOCC2)c2c(c1C#N)CC(C)(C)N(C)C2,0.85,1.64
O=C(NC1CCCC1)C1CCN(S(=O)(=O)c2ccccc2)CC1,0.87,-0.56
O=C(COc1ccccc1Cl)N1CCN(C(=O)c2ccco2)CC1,1.27,1.13
COCC(=O)N1CCN(c2ccc([N+](=O)[O-])cc2)CC1,1.57,-1.97
CCC(=O)N1CCc2cc(S(=O)(=O)CCC(=O)NCc3ccc(C)cc3)ccc21,0.07,-0.24
CCc1nc(N)c(C#N)c(-c2ccncc2)c1C,1,0.54
Cc1nn(-c2ccccc2)c2[nH]c(=O)c(CNCc3ccc4c(c3)OCO4)cc12,0.19,-0.28
CCCc1[nH]n(-c2nc3ccccc3s2)c(=O)c1C=NCCN1CCOCC1,0.75,0.04
NNC(=O)c1nnn(-c2nonc2N)c1-c1cccs1,1.49,0.01
CC1=C/C(=C/N(C)C)C(=O)O1,0.11,0.01
O=C(NCc1ccc2c(c1)OCO2)c1c[nH]c2ccc(S(=O)(=O)N3CCOCC3)cc2c1=O,0.02,1.44
COC(=O)CCCC1=CC2=CC(=O)C(C)(OC(=O)c3cccs3)C(=O)C2=CN1CCCOC(C)C (stereo not given),0.35,-1.56
CCc1ccc(Nc2nnc(SC3CCOC3=O)s2)cc1 (stereo not given),0.79,1.56

# New compounds follow:
SMILES,KCNQ2 pot,KCNQ2 pot baseline
COc1ccc(Cl)cc1NC(=O)CCn1cnc2ccccc2c1=O,0.28,0.54
Cc1nc2c(C(=O)NCc3ccc4c(c3)OCO4)c[nH]n2c(=O)c1Cl,0.89,-0.14
CCCCC(CC)CNC(=O)c1ncn[nH]1 (stereo not given),0.22,0.5
CC(C)(C)C(=O)Nc1cccc(OC(F)(F)C(F)Cl)c1 (stereo not given),5.83*,1.16*
CC(C)CSc1nnc2c3ccccc3n(C)c2n1,0.29,0.52
CC1CCN(C(=O)CCCNC(=O)Cn2cnc3sc4c(c3c2=O)CCCC4)CC1,0.3,0.07
Cc1ccc(NCc2nnc(SCC(=O)N3CCCCC3)n2CC2CCCO2)c(C)c1 (stereo not given),2.14,-0.81
CN(C)c1ccc(/C=N/c2cc(-c3ccccc3)nn2-c2ccccc2)cc1,1.58,-0.96
CC(NC(=O)c1ccc(C#N)cc1)C1CC2CCC1C2 (stereo not given),0.41,-1.51
CC(NC(=O)Cc1ccc(S(=O)(=O)N2CCOCC2)s1)c1ccc(Cl)c(Cl)c1 (stereo not given),1.17,-1.89
COc1ccc(Cc2nc3c4c(ncn3n2)Oc2c(ccc3ccccc23)C4c2ccc(OC)c(OC)c2)cc1 (stereo not given),0.45,-0.83
CCCn1c(N)c(Sc2ccccc2[N+](=O)[O-])c(=O)n(CCC)c1=O,0.5,-1.26
CNC(=S)N1CCN(c2cccc(OC)c2)CC1,2.57,0.95
COc1ccc(-c2cc(=O)oc3c(C)c(OC(=O)c4cccs4)ccc23)cc1,0.34,0.85
Cc1ccc(NS(=O)(=O)c2ccc(NC(=O)c3ccccc3C(=O)O)cc2)c(C)c1,1.31,0.89
COc1ccc(/C=C2\Sc3ccc(C(=O)N4CCOCC4)cc3N(C)C2=O)cc1,1.2,-1.2
Cc1cc(NC(=O)c2cc(-c3cccs3)on2)nn1Cc1ccc(Cl)cc1,1.26,-3.21

# Random excerpt: 3 compounds from above, in no set order.
SMILES,KCNQ2 pot,KCNQ2 pot baseline
Cc1nc2c(C(=O)NCc3ccc4c(c3)OCO4)c[nH]n2c(=O)c1Cl,0.89,-0.14
Cc1ccc(NS(=O)(=O)c2ccc(NC(=O)c3ccccc3C(=O)O)cc2)c(C)c1,1.31,0.89
COc1ccc(Cc2nc3c4c(ncn3n2)Oc2c(ccc3ccccc23)C4c2ccc(OC)c(OC)c2)cc1 (stereo not given),0.45,-0.83
